High-throughput results from PubChem BioAssay.
MITF inhib = inhibitors of MITF | TRPM1 promoter luciferase, luminescence, 24 h | hit rate 0.28% among 37,000 | inhibition, % (no concentration beside the values);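 active = most replicates at 85% or more, or half of them and the mean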;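 also: human melanocyte line stably carrying TRPM1 promoter luciferase reporter; 0% = vehicle wells and 100% = a positive control; the first replicate is given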
YB-1 expr inh = YB-1 expression inhibition. U2OS, qRT-PCR YB-1 vs CDIP delta delta Cp, 16 h; active compounds read high; zero = DMSO, each unit about twofold. delta delta Cp (YB-1 minus CDIP) (test concentration not listed). hit rate 0.37% among 30,000;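 active = delta delta Cp rounded down to an integer at or above 3, about 3 SD of DMSO wells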;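 also: higher means less YB-1 transcript or more CDIP transcript relative to DMSO; stock transfer was 100 nL into about 100 µL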
Hedgehog inh = Sonic Hedgehog pathway inhibition; Shh-LIGHT2 Gli-luciferase reporter, 30 h; inhibition, % (concentration not given with the values); hit rate 2.1% among 22,000; AID 2313;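 active = replicate mean of 65% or more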;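 also: pathway switched on by Shh-conditioned medium diluted 1 in 25 in low serum; 100 nL library stock added to about 40 µL; 0% = median of neutral wells and 100% = positive control level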
PD-1 reversal = activators reversing PD-1 mediated T-cell inhibition. primary human CD4 T cells, PD-L1 beads, CellTiter-Glo 96 h. activation, % (concentration not given with the values). 29,000 tested, under 10 active. AID 2316;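 active = replicate mean of 50% or more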;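 also: 0% = median vehicle wells and 100% = positive control; 100 nL library stock added to about 50 µL; numbers are from one replicate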
The depositor's hits bear a star; / = no result given. Some of the compounds tested, so the mix of outcomes need not match the whole.

Molecule,MITF inhib,YB-1 expr inh,Hedgehog inh,PD-1 reversal
CCOc1ccc(C2C3=C(CCCC3=O)NC3=C2C(=O)CCC3)cc1,7,-0.29,-4,-0.5
Cc1nnsc1C(=O)Nc1cccnc1,-10,0.036,-22,-0.6
Cc1ccc(S(=O)(=O)Nc2cccc3c2O[C@H](CN(C)Cc2ccc(Oc4ccccc4)cc2)[C@@H](C)CN([C@H](C)CO)C3=O)cc1,30,19*,3,-0.8
COc1ccc(NC(=O)Nc2ccc3c(c2)C(=O)N([C@H](C)CO)C[C@@H](C)[C@@H](CN(C)C(=O)Nc2c(C)noc2C)O3)cc1,1,-0.057,-26,1.1
C[C@H]1CN([C@@H](C)CO)C(=O)Cc2cc(NC(=O)c3ccncc3)ccc2O[C@@H]1CN(C)S(=O)(=O)c1cccs1,-2,0.2,-3,-1.1
COc1ccc(S(=O)(=O)Nc2ccc3c(c2)C(=O)N([C@@H](C)CO)C[C@H](C)[C@H](CN(C)S(=O)(=O)c2ccc(C)cc2)O3)cc1,-9,-0.21,/,2.5
COc1ccc(OCC(=O)Nc2cccc3ncccc23)cc1,-17,/,/,2.1
C[C@@H]1CN([C@H](C)CO)C(=O)Cc2cc(NC(=O)CCC(F)(F)F)ccc2O[C@@H]1CN(C)Cc1ccc2c(c1)OCO2,-7,-0.072,-39,-4.1
CCOC(=O)Cc1c(C)nc2c(-c3ccccc3OC)c(C)nn2c1C,-5,/,/,-2.3
CSc1cccc(NC(=O)C(C)NS(=O)(=O)c2ccc(F)cc2)c1 (configuration not stated),1,/,/,-0.3
C[C@@H]1CN([C@@H](C)CO)C(=O)c2cc(NC(=O)NC3CCCCC3)ccc2O[C@@H]1CN(C)C(=O)Nc1ccc(F)cc1,-3,0.41,-16,-2.8
Cc1noc(C)c1NC(=O)Nc1ccc2c(c1)C(=O)N([C@@H](C)CO)C[C@H](C)[C@@H](CN(C)Cc1ccc(Cl)c(Cl)c1)O2,-12,-0.27,/,2.8
O=C(CN1C(=O)/C(=C\c2ccc(F)cc2)N=C1c1ccccc1)c1ccco1,-55,-0.35,-40,-4.4
COc1ccc(C)cc1NC(=O)CN(c1ccc(Br)c(C)c1)S(C)(=O)=O,15,/,/,-0.6
O=C(COc1ccc(N2CC(C(=O)O)CC2=O)cc1)Nc1cccc(C(F)(F)F)c1 (configuration not stated),-19,/,/,2.2
O=C(CSc1nnc(-c2ccco2)n1-c1ccccc1)c1ccc2c(c1)OCCO2,-1,/,/,-0.7
C[C@@H]1CN([C@@H](C)CO)C(=O)c2cccc(NC(=O)Nc3ccc(C(F)(F)F)cc3)c2O[C@H]1CN(C)C(=O)Nc1ccc(F)cc1,31,-0.37,-84,-4.5
COc1ccc(CN(C)C[C@@H]2Oc3ccc(NC(=O)Nc4ccccc4)cc3C(=O)N([C@@H](C)CO)C[C@H]2C)cc1,-5,0.4,/,-0.7
C[C@@H]1CN([C@H](C)CO)C(=O)c2cccc(NS(=O)(=O)c3ccccc3)c2O[C@H]1CN(C)Cc1ccncc1,-3,-0.17,9,-1.6
C[C@@H]1CN([C@@H](C)CO)C(=O)c2cc(NC(=O)NC3CCCCC3)ccc2O[C@@H]1CN(C)Cc1ccncc1,-6,-0.16,/,0.8
Cc1ccc2c(c1)c1nc3ccccc3nc1n2CCN1CCOCC1,19,/,/,-5.1
C[C@@H]1CN([C@@H](C)CO)C(=O)c2cccc(NC(=O)C3CCCCC3)c2O[C@@H]1CN(C)C(=O)Nc1ccc2c(c1)OCO2,7,-0.32,-12,2.3
C[C@H]1CN([C@@H](C)CO)C(=O)Cc2cc(NC(=O)c3ccncc3)ccc2O[C@H]1CN(C)CC1CC1,-10,0.16,-20,/
COc1ccc(NC(=O)Nc2ccc3c(c2)CC(=O)N([C@H](C)CO)C[C@H](C)[C@H](CN(C)Cc2ccc(C(=O)Nc4ccccc4N)cc2)O3)cc1,22,-0.024,/,-3.8
Cc1ccc(C(=O)Nc2ccc3c(c2)OCCO3)cc1,58,-0.14,/,-0.4
Cc1cc(C(=O)Nc2cccc3c2O[C@@H](CN(C)Cc2ccc4c(c2)OCO4)[C@H](C)CN([C@@H](C)CO)C3=O)n(C)n1,-10,-0.31,-31,/
C[C@@H]1CN([C@H](C)CO)C(=O)c2cccc(NS(=O)(=O)c3cn(C)cn3)c2O[C@@H]1CN(C)Cc1ccccc1,1,-1.1,-10,2.4
Cc1ccc(NC(=O)COc2ccccc2)c(NC(=O)c2ccc(Cl)cc2)c1,-21,/,/,2.0
O=C(CSc1nnc(-c2cccs2)n1-c1ccccc1Cl)Nc1cccc(C(=O)O)c1,-8,/,/,4.3
CCCc1cc(=O)[nH]c(SCC(=O)Nc2cc(C)cc(C)c2)n1,10,/,/,0.8
COc1ccc(OC)c(C(O)CNC(=O)CN)c1 (configuration not stated),-9,-0.42,-61,/
CC(C)NC(=O)N(C)C[C@H]1Oc2ccc(NS(C)(=O)=O)cc2C(=O)N([C@@H](C)CO)C[C@@H]1C,10,0.038,-37,-1.0
CC(C)NC(=O)Nc1cccc2c1O[C@@H](CN(C)S(=O)(=O)c1ccccc1)[C@@H](C)CN([C@H](C)CO)C2=O,3,-0.062,13,1.0
C[C@@H]1CCCCO[C@H](CN(C)C(=O)CCCN(C)C)[C@@H](C)CN([C@H](C)CO)C(=O)c2cc(N(C)C)ccc2O1,-6,-0.041,-9,/
C[C@@H]1CCCCO[C@H](CN(C)Cc2ccccc2)[C@@H](C)CN([C@H](C)CO)C(=O)c2cc(NS(=O)(=O)c3cccs3)ccc2O1,11,0.41,18,0.3
C[C@@H]1CN([C@@H](C)CO)C(=O)c2cccc(NC(=O)Nc3ccccc3)c2O[C@H]1CN(C)S(=O)(=O)c1cn(C)cn1,-10,0.39,-6,1.3
C[C@H](CO)N1C[C@H](C)[C@@H](CN(C)C(=O)Nc2ccc3c(c2)OCO3)Oc2ccc(NC(=O)NC3CCCCC3)cc2C1=O,-7,0.11,-55,/
N#CC(C(=O)c1cccs1)=C1SCCCS1,-56,-0.12,-22,0.0
C[C@H]1CN([C@@H](C)CO)C(=O)c2cccc(NC(=O)NC3CCCCC3)c2O[C@@H]1CN(C)S(=O)(=O)c1ccccc1,1,-0.69,17,-0.4
C[C@H](CO)N1C[C@H](C)[C@H](CN(C)Cc2ccc3c(c2)OCO3)Oc2ccc(NS(C)(=O)=O)cc2C1=O,-6,-0.31,-42,1.3
Cc1noc(C)c1NC(=O)Nc1ccc2c(c1)C(=O)N([C@@H](C)CO)C[C@@H](C)[C@@H](CN(C)Cc1ccc(C(=O)Nc3ccccc3N)cc1)O2,-10,-0.18,/,-0.4
O=C(Cn1cc(C(=O)c2cccs2)c2ccccc21)NCC1CCCO1 (configuration not stated),-4,/,/,1.0
C[C@H]1CN([C@@H](C)CO)C(=O)c2cccc(NC(=O)c3ccc(-c4nccs4)cc3)c2O[C@@H]1CN(C)Cc1ccccc1,15,0.17,42,-2.6
C[C@@H]1CCCCO[C@@H](CN(C)C(=O)Nc2ccc(C(F)(F)F)cc2)[C@@H](C)CN([C@H](C)CO)C(=O)c2cc(NC(=O)Nc3cccc4ccccc34)ccc2O1,-5,-0.067,57,-3.1
C[C@H]1CN([C@@H](C)CO)C(=O)c2cccc(NS(=O)(=O)c3ccc(F)cc3)c2O[C@@H]1CN(C)C,1,0.22,-2,0.4
NS(=O)(=O)c1ccc(N=CC2=C(O)c3ccccc3C2=O)cc1,-12,-0.31,5,-1.4
C[C@H](CO)N1C[C@H](C)[C@@H](CN(C)C(=O)Nc2ccc(C(F)(F)F)cc2)Oc2ccc(NC(=O)NC3CCCCC3)cc2C1=O,17,0.065,4,-0.6
C[C@@H]1CCCCO[C@@H](CN(C)CC2CCCCC2)[C@@H](C)CN([C@H](C)CO)C(=O)c2cc(NS(C)(=O)=O)ccc2O1,-6,0.31,-9,/
CC(C)NC(=O)Nc1ccc2c(c1)C(=O)N([C@H](C)CO)C[C@H](C)[C@H](CN(C)Cc1ccc(C(F)(F)F)cc1)O2,3,-0.14,-11,/
C[C@H](CO)N1C[C@H](C)[C@H](CN(C)S(=O)(=O)c2cn(C)cn2)Oc2ccc(NC(=O)Cn3cnnn3)cc2C1=O,-2,-0.042,/,/

(more compounds)
Molecule,MITF inhib,YB-1 expr inh,Hedgehog inh,PD-1 reversal
C[C@H](CO)N1C[C@H](C)[C@@H](CN(C)S(=O)(=O)c2ccc(F)cc2)Oc2ccc(NC(=O)CCCCCC(=O)Nc3ccccc3N)cc2C1=O,-2,-0.025,/,0.2
C[C@H]1CN([C@@H](C)CO)C(=O)c2cc(NC(=O)Cc3cn(C)c4ccccc34)ccc2O[C@@H]1CN(C)S(=O)(=O)c1ccc(Cl)cc1,15,0.58,12,-0.7
C[C@H]1CN([C@@H](C)CO)C(=O)Cc2cc(NC(=O)CCC(F)(F)F)ccc2O[C@H]1CN(C)CC1CC1,-7,0.18,/,0.8
C[C@H]1CN([C@@H](C)CO)C(=O)Cc2cc(NS(=O)(=O)c3ccc(Cl)cc3)ccc2O[C@H]1CN(C)C(=O)Nc1ccc(C(F)(F)F)cc1,4,0.044,/,2.3
C[C@@H]1CN([C@H](C)CO)C(=O)c2cccc(NC(=O)Nc3cccc4ccccc34)c2O[C@H]1CN(C)S(=O)(=O)c1cn(C)cn1,6,0.02,13,/
CC(C)NC(=O)Nc1ccc2c(c1)C(=O)N([C@@H](C)CO)C[C@H](C)[C@H](CN(C)C(=O)Nc1ccccc1)O2,-12,-0.2,/,/
CN(Cc1nc(-c2ccncc2)no1)S(=O)(=O)c1ccc(Cl)cc1,33,/,/,-0.1
COC(=O)c1cccc(NC(=O)CSc2nc(C)c3c(n2)CCCC3)c1,-31,/,/,-1.4
CN(Cc1cc2ccccc2[nH]c1=O)S(=O)(=O)c1ccccc1,-39,/,/,0.5
Cc1noc(C)c1NC(=O)N(C)C[C@H]1OCCCC[C@@H](C)Oc2ccc(NC(=O)Nc3ccc(F)cc3)cc2C(=O)N([C@H](C)CO)C[C@@H]1C,2,-0.57,/,/

Shown with values under each structure: part of the list above.
The line under a structure holds: MITF inhib, YB-1 expr inh, Hedgehog inh, PD-1 reversal
> COC(=O)c1cccc(NC(=O)CSc2nc(C)c3c(n2)CCCC3)c1
 : -31, /, /, -1.4
> C[C@H]1CN([C@@H](C)CO)C(=O)Cc2cc(NC(=O)CCC(F)(F)F)ccc2O[C@H]1CN(C)CC1CC1
 : -7, 0.18, /, 0.8

(next part)
Molecule,MITF inhib,YB-1 expr inh,Hedgehog inh,PD-1 reversal
C[C@H]1CN([C@@H](C)CO)C(=O)c2cc(NS(=O)(=O)c3cccs3)ccc2O[C@@H]1CN(C)Cc1ccncc1,-2,0.04,/,0.1
C[C@@H]1CN([C@@H](C)CO)C(=O)c2cc(NC(=O)Nc3ccc(F)cc3)ccc2O[C@@H]1CN(C)C(=O)Nc1ccc(C(F)(F)F)cc1,30,0.23,7,-2.4
CC(=O)OCCSc1nc(N(C)C)nc(N(C)C)n1,2,/,/,3.7
C[C@H]1CN([C@@H](C)CO)C(=O)Cc2cc(N(C)C)ccc2O[C@H]1CN(C)S(=O)(=O)c1ccc(Cl)cc1,24,-0.29,-17,-0.3
CN(c1cccc(NC(=O)c2ccc(Cl)c(S(=O)(=O)Nc3ccccc3)c2)c1)S(C)(=O)=O,38,/,/,-0.3
CC(C)NC(=O)N(C)C[C@H]1Oc2c(NC(=O)C3CC3)cccc2C(=O)N([C@@H](C)CO)C[C@H]1C,1,-1.1,-22,1.4
C[C@H]1CN([C@@H](C)CO)C(=O)c2cccc(NC(=O)CCCCCC(=O)Nc3ccccc3N)c2O[C@H]1CN(C)Cc1ccc(Cl)c(Cl)c1,47,-0.95,/,-0.3
C[C@@H]1CN([C@@H](C)CO)C(=O)Cc2cc(NC(=O)c3ccncc3)ccc2O[C@@H]1CN(C)Cc1ccccc1,-2,-0.25,1,1.6
COc1ccc(NC(=O)Nc2cccc3c2O[C@H](CN(C)Cc2ccc(C(=O)Nc4ccccc4N)cc2)[C@H](C)CN([C@H](C)CO)C3=O)cc1,23,-0.34,/,-2.1
C[C@H](CO)N1C[C@H](C)[C@H](CN(C)S(=O)(=O)c2ccccc2)Oc2c(NC(=O)C3CC3)cccc2C1=O,-3,0.041,51,-0.1
Cc1noc(C)c1S(=O)(=O)N(C)C[C@@H]1Oc2c(NC(=O)C3CCOCC3)cccc2C(=O)N([C@@H](C)CO)C[C@@H]1C,-9,-0.3,-11,-0.1
C[C@@H]1CN([C@@H](C)CO)C(=O)Cc2cc(NC(=O)CCCN(C)C)ccc2O[C@@H]1CN(C)CC1CCCCC1,1,0.078,-2,0.6
C[C@@H]1CN([C@@H](C)CO)C(=O)c2cc(NS(=O)(=O)c3cn(C)cn3)ccc2O[C@@H]1CN(C)C(=O)Nc1ccc2c(c1)OCO2,-7,0.099,-25,-0.1
C[C@H]1CN([C@@H](C)CO)C(=O)Cc2cc(NS(C)(=O)=O)ccc2O[C@H]1CN(C)C(=O)Nc1ccc2c(c1)OCO2,18,-0.34,-32,0.6
